# Vaccinia stage – Vaccinia orthopox stage-specific inhibition | Vaccinia-infected cells, mCherry/Venus stage reporter fluorescence; hits give low values; some inactives read as strong as hits | activity change (mCherry), % (concentration not given with the values) | actives 0.01% (n = 89,000);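 active means mCherry past -33% and 40 or more points under the early reporter, replicates agreeing; inconclusive means past -33% without that gap or agreement; tested in A549 cells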;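 further: scaled between vehicle wells and reference inhibitor wells; 23 nL library stock went into each well; one replicate is shown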
# Vaccinia stage Venus – further read-out of Vaccinia stage, marked with its call; activity change (Venus), %; measured here: Venus reporter, other viral stage;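 negative = less Venus signal; first of two replicates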
# Numbers without * were called inactive; ? = inconclusive; · = no result given.
1	C[C@@H]1CN([C@H](C)CO)C(=O)c2cc(NC(=O)CCC(F)(F)F)ccc2O[C@@H]1CN(C)Cc1ccc2c(c1)OCO2
2	O=C(C[C@H]1C[C@H]2c3cc(NS(=O)(=O)c4ccc(F)cc4)ccc3O[C@H]2[C@@H](CO)O1)NCc1ccccc1F
3	O=C(C[C@H]1CC[C@H]2[C@@H](COC[C@@H](O)CN2S(=O)(=O)c2ccc(Oc3ccccc3)cc2)O1)NC1CCC1
4	O=C(Nc1ccc(F)cc1)N[C@@H]1CC[C@H](CCNC(=O)c2cc(Cl)cc(Cl)c2)O[C@H]1CO
5	CCC(=O)N1CC2(C1)[C@H](c1ccccc1)[C@@H](CO)N2S(=O)(=O)Cc1ccccc1
6	O=C(C[C@@H]1CC[C@@H]2[C@H](COC[C@@H](O)CN2C(=O)CCN2CCCCC2)O1)NCc1ccncc1
7	CO[C@H](CN(C)Cc1cc(F)ccc1F)[C@@H](C)CN([C@H](C)CO)S(=O)(=O)c1ccc(C)cc1
8	C[C@@H]1CN([C@H](C)CO)C(=O)c2cc(NC(=O)C3CCCCC3)ccc2O[C@@H](C)CCCCO[C@@H]1CN(C)S(=O)(=O)c1cn(C)cn1
Assay by compound,1,2,3,4,5,6,7,8
Vaccinia stage,-15,4,?,-8,12,3,-10,16
Vaccinia stage Venus,-21,3,·,3,6,-1,-9,12

9	COc1ccc(CN(C)C[C@H]2OCCCC[C@@H](C)Oc3ccc(NS(C)(=O)=O)cc3C(=O)N([C@H](C)CO)C[C@@H]2C)cc1
10	C[C@H]1CN([C@@H](C)CO)C(=O)c2cc(C#CCN(C)C)cnc2O[C@H]1CN(C)Cc1ccc(C(=O)O)cc1
11	COc1ccc(C#Cc2ccc3c(c2)[C@H]2[C@H](CCN2C(=O)NC(C)C)[C@H](CO)N3C)cc1
12	C[C@@H]1CN([C@@H](C)CO)C(=O)c2cc(NC(=O)Cn3cnnn3)ccc2O[C@H]1CN(C)S(=O)(=O)c1cccs1
13	O=C(Nc1ccccc1F)N1C[C@@H]2[C@H](c3ccccc31)[C@H](CO)N2C(=O)c1ccccc1F
14	C[C@@H]1CN([C@H](C)CO)C(=O)c2cc(NS(=O)(=O)c3cccs3)ccc2O[C@H]1CN(C)Cc1ccccc1
15	COc1ccc(S(=O)(=O)Nc2ccc3c(c2)CC(=O)N([C@H](C)CO)C[C@@H](C)[C@H](CN(C)Cc2ccc(C(F)(F)F)cc2)O3)cc1
16	CO[C@H]1CN(C)C(=O)c2ccc(NC(=O)c3ccc4c(c3)OCO4)cc2OC[C@H](C)NC[C@@H]1C
Assay by compound,9,10,11,12,13,14,15,16
Vaccinia stage,8,38,-33,23,10,5,-31,-3
Vaccinia stage Venus,3,9,-12,12,-2,1,-19,-7

17	C[C@H](CO)N1C[C@H](C)[C@H](CN(C)Cc2ccc(-c3ccccc3)cc2)Oc2ccc(NS(=O)(=O)c3ccc(Cl)cc3)cc2C1=O
18	CC(C)NC(=O)Nc1ccc2c(c1)C(=O)N([C@@H](C)CO)C[C@H](C)[C@@H](CN(C)Cc1ccc(-c3ccccc3)cc1)O2
19	Cn1c(N)c(C#N)c(-c2ccccc2)c(C#N)c1=O
20	COc1ccc(CN(C)C[C@H]2Oc3ccc(NC(=O)NC(C)C)cc3CC(=O)N([C@H](C)CO)C[C@@H]2C)cc1
21	Cc1noc(C)c1NC(=O)N(C)C[C@@H]1OCCCC[C@H](C)Oc2ccc(NC(=O)c3ccccc3)cc2C(=O)N([C@H](C)CO)C[C@@H]1C
22	C/C=C/c1ccc([C@@H]2[C@H]3CN(C(=O)Nc4ccc(F)cc4)CCCCN3[C@H]2CO)cc1
23	COc1ccc(C#Cc2ccc3c(c2)O[C@@H](CN(C)C)[C@@H](C)CN([C@H](C)CO)S3(=O)=O)cc1
24	C[C@H](CO)N1C[C@H](C)[C@H](CN(C)Cc2ccc(C(=O)O)cc2)Oc2ccc(NC(=O)Cc3ccccc3)cc2C1=O
Assay by compound,17,18,19,20,21,22,23,24
Vaccinia stage,?,-10,9,3,7,?,?,10
Vaccinia stage Venus,·,-11,3,1,4,·,·,0

25	Cc1cccc(S(=O)(=O)N2CCCCN3[C@@H](CO)[C@@H](c4ccc(C#C[C@H](C)O)cc4)[C@@H]3C2)c1
26	CO[C@@H]1CN(C)C(=O)c2cc(NC(=O)C3CC3)ccc2OC[C@H](C)N(C(=O)C2CCCCC2)C[C@H]1C
27	O=C(C1CCCC1)N1[C@@H](CO)[C@@H](c2ccccc2)C12CN(Cc1cccc(Cl)c1)C2
28	COCCOC(=O)N1C(=O)[C@@]2(c3cc(C#CC4=CCCCC4)ccc31)[C@H](c1ccccc1OCCO)N1[C@H](c3ccccc3)[C@H](c3ccccc3)OC(=O)[C@H]1[C@@H]2C(=O)NC[C@H](O)c1ccccc1
29	CCCNC(=O)[C@H]1[C@H](CO)[C@H]2Cn3c(ccc(-c4cccc(F)c4)c3=O)[C@@H]1N2Cc1ccccc1F
30	CNC[C@@H]1Oc2c(NC(=O)c3cnccn3)cccc2C(=O)N([C@H](C)CO)C[C@@H]1C
31	O=C(c1cccc(F)c1)N1CCCCN2[C@H](CO)[C@@H](c3ccc(-c4cccnc4)cc3)[C@H]2C1
32	CCC(=O)N1[C@@H]2c3cccc(=O)n3C[C@H]1[C@H](CO)[C@H]2C(=O)NC1CCC1
Assay by compound,25,26,27,28,29,30,31,32
Vaccinia stage,?,0,-13,-9,11,-1,17,11
Vaccinia stage Venus,·,-3,-4,-2,2,10,-1,2

33	CO[C@@H]1CN(C)C(=O)c2cc(NS(C)(=O)=O)ccc2OC[C@@H](C)NC[C@@H]1C
34	C[C@H](CO)N1C[C@H](C)[C@H](CN(C)C(=O)C2CCC2)Oc2cc(-c3cncnc3)ccc2S1(=O)=O
35	C[C@@H]1CN([C@H](C)CO)C(=O)c2cc(NS(=O)(=O)c3ccc(Cl)cc3)ccc2O[C@@H](C)CCCCO[C@H]1CN(C)S(=O)(=O)c1cccs1
36	COC(=O)[C@@H]1[C@@H](CO)[C@@H]2Cn3c(ccc(C4=CCCC4)c3=O)[C@H]1N2CC1CCCC1
37	COc1ccc(S(=O)(=O)N(C)C[C@H]2Oc3ccc(NC(=O)Nc4c(C)noc4C)cc3CC(=O)N([C@H](C)CO)C[C@H]2C)cc1
38	CO[C@@H]1CN(C)C(=O)c2cc(NC(=O)C3CC3)ccc2OC[C@H](C)N(C(=O)c2ccccc2)C[C@H]1C
39	O=C(C[C@@H]1C=C[C@H](NC(=O)C2CCOCC2)[C@@H](CO)O1)NCc1ccccc1Cl
40	COc1ccc(NC(=O)Nc2cccc3c2O[C@@H](CN(C)Cc2ccc(C(=O)Nc4ccccc4N)cc2)[C@H](C)CN([C@H](C)CO)C3=O)cc1
Assay by compound,33,34,35,36,37,38,39,40
Vaccinia stage,5,10,?,1,1,15,17,13
Vaccinia stage Venus,6,8,·,4,12,7,7,8

41	CCCC(=O)Nc1ccc2c(c1)C(=O)N(C)[C@@H]1CC[C@H](CC(=O)Nc3cn(C)nc3C)O[C@@H]1CO2
42	CNC[C@@H]1Oc2ccc(NC(=O)Cc3ccccc3)cc2C(=O)N([C@@H](C)CO)C[C@H]1C
43	C[C@H](CO)N1C[C@H](C)[C@H](CN(C)C)Oc2c(NS(=O)(=O)c3ccccc3)cccc2C1=O
44	O=C(NC1CCCC1)[C@H]1[C@H](CO)[C@H]2Cn3c(ccc(-c4ccccc4)c3=O)[C@H]2N1CCc1ccccc1
45	C[C@H](CO)N1C[C@H](C)[C@@H](CN(C)Cc2ccc(C(=O)O)cc2)Oc2c(NS(=O)(=O)c3ccccc3)cccc2C1=O
46	CC(C)C#Cc1cnc2c(c1)C(=O)N([C@@H](C)CO)C[C@@H](C)[C@@H](CN(C)C(=O)C1CCC1)O2
47	C[C@H](CO)N1C[C@H](C)[C@@H](CN(C)C(=O)Nc2cccc3ccccc23)Oc2ccc(NC(=O)NC3CCCCC3)cc2C1=O
48	COc1ccc(S(=O)(=O)Nc2ccc3c(c2)CC(=O)N([C@@H](C)CO)C[C@@H](C)[C@H](CN(C)Cc2ccc(C(=O)Nc4ccccc4N)cc2)O3)cc1
Assay by compound,41,42,43,44,45,46,47,48
Vaccinia stage,4,6,16,-31,21,5,13,6
Vaccinia stage Venus,-2,-5,10,-19,26,-1,16,-2

# Retrieved by structure from the entries so far, 4 records:
46	CC(C)C#Cc1cnc2c(c1)C(=O)N([C@@H](C)CO)C[C@@H](C)[C@@H](CN(C)C(=O)C1CCC1)O2
47	C[C@H](CO)N1C[C@H](C)[C@@H](CN(C)C(=O)Nc2cccc3ccccc23)Oc2ccc(NC(=O)NC3CCCCC3)cc2C1=O
42	CNC[C@@H]1Oc2ccc(NC(=O)Cc3ccccc3)cc2C(=O)N([C@@H](C)CO)C[C@H]1C
41	CCCC(=O)Nc1ccc2c(c1)C(=O)N(C)[C@@H]1CC[C@H](CC(=O)Nc3cn(C)nc3C)O[C@@H]1CO2
Assay by compound,46,47,42,41
Vaccinia stage,5,13,6,4
Vaccinia stage Venus,-1,16,-5,-2

# The listing continues.
49	C[C@@H]1CN([C@H](C)CO)C(=O)c2cc(NS(=O)(=O)c3ccc(F)cc3)ccc2O[C@@H](C)CCCCO[C@H]1CN(C)Cc1ccncc1
50	CCC(=O)N(C)C[C@@H]1Oc2cc(-c3cccc(OC)c3)ccc2S(=O)(=O)N([C@@H](C)CO)C[C@H]1C
51	C[C@H](CO)N1C[C@H](C)[C@@H](CN(C)S(=O)(=O)c2ccsc2)OCc2ccccc2-c2ccccc2C1=O
52	O=C(C1CCOCC1)N1CC[C@H]2[C@H](CO)Nc3ccc(-c4cccc(F)c4)cc3[C@H]21
53	COc1ccccc1S(=O)(=O)N(C)C[C@H]1Oc2cc(Br)ccc2S(=O)(=O)N([C@H](C)CO)C[C@H]1C
54	COc1ccccc1C#Cc1cnc2c(c1)C(=O)N([C@H](C)CO)C[C@H](C)[C@@H](CN(C)C(=O)c1ccc3c(c1)OCO3)O2
55	COCC#Cc1ccc2c(c1)O[C@@H](CN(C)C(=O)COC)[C@@H](C)CN([C@@H](C)CO)S2(=O)=O
56	CN1[C@@H]2Cn3c(ccc(C4=CCCC4)c3=O)[C@H]1[C@@H](C(=O)N1CCOCC1)[C@@H]2CO
Assay by compound,49,50,51,52,53,54,55,56
Vaccinia stage,-15,2,-13,-2,?,?,7,0
Vaccinia stage Venus,-18,-6,0,0,·,·,0,2

57	C[C@@H]1CN([C@H](C)CO)C(=O)Cc2cc(NC(=O)C3CCCCC3)ccc2O[C@@H]1CN(C)S(=O)(=O)c1ccc(F)cc1
58	COCC(=O)N1CCC2(CC1)CN(Cc1ccc3c(c1)OCO3)[C@H](CO)c1c2c2ccc(OC)cc2n1C
59	CN1C(=O)c2cc(NC(=O)c3ccccc3Cl)ccc2OC[C@@H]2O[C@@H](CC(=O)NCC(F)(F)F)CC[C@H]21
60	C[C@@H]1CN([C@@H](C)CO)C(=O)c2cc(NC(=O)c3ccncc3)ccc2O[C@@H](C)CCCCO[C@@H]1CN(C)C(=O)c1ccccc1
61	COc1ccc(S(=O)(=O)Nc2cccc3c2O[C@@H](CN(C)Cc2ccc(C(=O)Nc4ccccc4N)cc2)[C@@H](C)CN([C@@H](C)CO)C3=O)cc1
62	CO[C@@H]1CN(C)C(=O)c2ccc(NC(=O)Nc3ccc4c(c3)OCO4)cc2OC[C@H](C)NC[C@H]1C
63	C[C@@H]1CN([C@H](C)CO)C(=O)Cc2cc(NC(=O)C3CC3)ccc2O[C@H]1CN(C)C(=O)Nc1ccccc1
64	C[C@@H](NC(=O)[C@H]1[C@H](CO)[C@H]2Cn3c(ccc(C4=CCCCC4)c3=O)[C@H]2N1C)c1ccccc1
Assay by compound,57,58,59,60,61,62,63,64
Vaccinia stage,-3,-23,3,8,-3,8,10,-2
Vaccinia stage Venus,-3,-36,3,4,-5,1,8,-4

65	C[C@H](CO)N1C[C@H](C)[C@@H](CN(C)C(=O)Nc2cccc3ccccc23)Oc2ccc(NS(=O)(=O)c3ccccc3)cc2C1=O
66	CC(C)NC(=O)N(C)C[C@@H]1Oc2ccc(NS(=O)(=O)c3ccc(F)cc3)cc2C(=O)N([C@H](C)CO)C[C@@H]1C
67	CCC(=O)N(C)C[C@H]1Oc2cc(-c3ccc(OC)cc3)ccc2S(=O)(=O)N([C@@H](C)CO)C[C@H]1C
68	COc1ccc(NC(=O)N(C)C[C@@H]2Oc3c(NS(=O)(=O)c4cn(C)cn4)cccc3C(=O)N([C@H](C)CO)C[C@@H]2C)cc1
69	Cc1noc(C)c1S(=O)(=O)Nc1ccc2c(c1)C(=O)N([C@H](C)CO)C[C@H](C)[C@H](CN(C)C)O2
70	C[C@H](CO)N1C[C@H](C)[C@@H](CN(C)C(=O)[C@H](C)c2ccccc2)OCc2ccccc2-c2ccccc2C1=O
71	COc1ccc(NC(=O)Nc2ccc3c(c2)C(=O)N([C@@H](C)CO)C[C@@H](C)[C@@H](CN(C)C(=O)Nc2ccc4c(c2)OCO4)OCCCC[C@@H](C)O3)cc1
72	C[C@H](CO)N1C[C@H](C)[C@@H](CN(C)C(=O)c2ccccn2)Oc2ncc(C#Cc3ccccn3)cc2C1=O
73	CO[C@H]1CN(C)C(=O)c2ccc(NS(=O)(=O)c3c(C)noc3C)cc2OC[C@@H](C)NC[C@H]1C
74	CC(C)(C)[S@](=O)N1Cc2cc(C(=O)N3CCc4ccccc4C3)nc(-c3cccc(-c4cccnc4)c3)c2[C@@H]1CCO
Assay by compound,65,66,67,68,69,70,71,72,73,74
Vaccinia stage,12,3,-13,20,13,11,7,-5,15,-4
Vaccinia stage Venus,11,7,-14,15,6,1,2,6,6,10

# High-throughput results (PubChem)

# This is a subset, so the mix of outcomes need not match the whole.
